TRPML1 blocker: human mucolipin-1 channel inhibition. AID 624415. 0.02% of 390,000 active. activity change, negative = inhibition, % (test concentration not listed). Q9GZU1. TRPML1-inducible cells, Ca2+ dye fluorescence, FDSS; hits give low values; inhibition of EC80 agonist-evoked calcium signal; in the data active means activity change below about -50%; inconclusive means about -30% to -50%; inactive means above about -30%;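 note: stimulus is agonist 54-4 at its EC80 concentration; % is set by controls: 0 for no effect and ±100 for the full control effect; compound concentration not given in the record; the text of the record puts the active cut at -80%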
Target sequence (Q9GZU1 whole entry, looked up): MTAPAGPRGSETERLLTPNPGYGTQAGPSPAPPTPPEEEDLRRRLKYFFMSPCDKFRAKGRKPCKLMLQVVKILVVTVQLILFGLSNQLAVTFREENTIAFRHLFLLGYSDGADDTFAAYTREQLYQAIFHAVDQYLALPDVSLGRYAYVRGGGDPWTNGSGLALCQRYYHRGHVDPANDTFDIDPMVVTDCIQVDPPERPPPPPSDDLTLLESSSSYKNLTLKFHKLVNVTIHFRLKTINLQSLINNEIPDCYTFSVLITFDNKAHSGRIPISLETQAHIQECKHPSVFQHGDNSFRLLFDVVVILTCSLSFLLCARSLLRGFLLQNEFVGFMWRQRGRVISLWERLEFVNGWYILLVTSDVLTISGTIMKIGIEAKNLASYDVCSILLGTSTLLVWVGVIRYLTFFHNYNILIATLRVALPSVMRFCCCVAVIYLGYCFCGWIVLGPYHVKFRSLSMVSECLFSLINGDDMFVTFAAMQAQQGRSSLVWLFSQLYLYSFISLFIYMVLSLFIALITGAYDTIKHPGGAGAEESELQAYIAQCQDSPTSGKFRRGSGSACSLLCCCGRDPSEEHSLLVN
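Tet-induced TRPML1-DL cells loaded with Ca8 no-wash calcium dye were read kinetically on FDSS. Compound addition was followed by EC80 agonist 54-4 (4 uM final); inhibition was read over 110 s.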
gsp ag: activates gsp, the McCune-Albright syndrome mutation. 0.13% of 340,000 active. gsp mutant cells, cAMP HTRF, 30 min; control for the full effect not named in the record. Potency, µM (titrated, usually from 76.9 µM), for the others: at the highest dose activation (cAMP increase), most hits filed as activators; active = well fitted activation curve with a large enough effect; inconclusive = small, poorly fitted or top-dose-only effect, or another doubt; inactive = no such curve, though single readings can be large or run the other way; cell line not stated here;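 note: phosphodiesterase inhibitor Ro 20-1724 added with compounds to block cAMP breakdown; potency is the fitted concentration of half-maximal effect; nearly all actives have a fitted effect of over 60% in size; about a fifth of the inactives were tested at one dose only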
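Cells stably selected in G418 were plated at 2000/well, grown 16-24 hr, then given compounds in DMSO with the PDE inhibitor […] (300 uM solution added) for 30 min at 37C; cAMP was read by HTRF.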
Menin MLL FP FL: inhibitors of human menin-MLL interaction, wild-type MLL peptide; Fluorescence polarization, fluorescein-MLL peptide displacement from menin; FP activity change, % at 61.4 µM; 290,000 tested, under 10 active; AID 1766; inconclusive = falling polarisation curve, or a change in total fluorescence; inactive = total fluorescence flat and polarisation flat or rising; no compound was filed as active; the % refers to the polarisation; negative = inhibition;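 note: % of control where 0% means no effect; inhibitors lower the polarisation; unlabelled MLL peptide was the positive control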
gsp antagonist: antagonizes gsp, the McCune-Albright syndrome mutation; gsp-mutant cells, cAMP HTRF, 30 min; control for the full effect not named in the record; AID 624288; 0.4% of 340,000 active; Potency, µM (top dose mostly 76.9 µM), for inactives: top-dose activity change, negative = inhibition, hits mostly inhibitors; active = falling curve of any shape with a large fitted effect; inconclusive = falling curve, mostly with a smaller effect; inactive = flat or rising curve; cell line not stated here;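 note: intracellular cAMP measured with PDE inhibitor Ro 20-1724 present during compound exposure; potency is the fitted concentration of half-maximal effect; % is set by controls: 0 for no effect and ±100 for the full control effect; nearly all actives have a fitted effect of over 65% in size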
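Measurement of cellular cAMP by homogeneous time-resolved fluorescence following a 30 min compound exposure at 37C. The PDE inhibitor […] was present throughout; the assay buffer was DPBS with 0.05% BSA and 0.005% Tween 20.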
TRPML1 ag: agonists of human TRPML1 channel; Q9GZU1; TRPML1-expressing cells, Ca2+ dye fluorescence, FDSS; host cell line not named in the record; reference of the full effect not given here; activation, % (no concentration beside the values); 0.12% of 410,000 active; AID 624414; in the data active = activation above about 50%; inconclusive = about 30% to 50%; inactive = below about 30%; note: 0% is about no effect; the text of the record puts the active cut at 80%
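Agonist activity was taken from a 110 s kinetic Ca2+ dye read on the FDSS after pinning compounds onto TRPML1-DL cells. The cells were seeded at 1,500/well with Tet inducer, incubated about 16 h, then dye-loaded at room temperature.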
ClpP mod: qHTS Assay for Activators of ClpP; 1.9% of 340,000 active; AID 651965, 2013; Potency, µM (top dose mostly 57.5 µM), for inactives: at the highest dose activity change, negative = active; purified B. subtilis ClpP, FRET peptide cleavage, 20 min; active = well fitted falling curve with a large enough effect; inconclusive = small, poorly fitted or top-dose-only effect; inactive = no such curve, though single readings can be large or run the other way; note: potency is the fitted concentration of half-maximal effect; the source files actives as falling curves though it sought activators and does not explain the sign; nearly all actives have a fitted effect of over 65% in size; many hits overshoot -100%
Target sequence (P80244 whole entry, looked up): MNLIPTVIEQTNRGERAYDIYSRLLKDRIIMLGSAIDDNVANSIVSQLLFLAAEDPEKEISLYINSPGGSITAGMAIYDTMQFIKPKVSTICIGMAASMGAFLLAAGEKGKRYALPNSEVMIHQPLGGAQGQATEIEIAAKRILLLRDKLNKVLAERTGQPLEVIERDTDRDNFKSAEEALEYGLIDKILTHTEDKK
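ClpP 10 microg/mL final, pH 8 Tris/KCl buffer with BSA, glycerol, Tween-20; compound pinned in; FRET-FV substrate; RT 20 min; Ex320/Em430; ΔFRET vs ADEP 5.8 microM, DMSO, no enzyme.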
Active calls of the source: *; ? = inconclusive; / = not tested or not shown; [ ] = another dose, or the depositor's remark.

SMILES	TRPML1 blocker	gsp ag	Menin MLL FP FL	gsp antagonist	TRPML1 ag	ClpP mod
Cc1cccc(-n2c(C)cc(/C=N/NC(=O)c3ccc(CN4CCOCC4)cc3)c2C)c1	7.4	-28.2%	2.2	-12.3%	-0.4	0.1%
O=C(CCc1ccccn1)N1CCCC(Nc2ccc(F)cc2)C1 (stereo not drawn)	1.3	19.0%	/	-4.7%	-0.1	-4.0%
CN(c1ccc(C(=O)NCc2cccnc2)cc1)S(C)(=O)=O	-9.3	-2.2%	1.0	8.9%	1.0	-0.8%
CC(=O)Nc1ccc(NC(=O)C(Cc2ccccc2)N2Cc3ccccc3C2=O)cc1 (stereo not drawn)	44.6	/	/	/	-0.2	0.6%
NC(=O)c1nsc(C(=O)N(Cc2ccccc2Cl)C(C(=O)NCC2CCCO2)c2ccc(O)cc2)c1N (stereo not drawn)	4.9	-12.4%	-2.8	-16.8%	0.8	/
Cc1ccc(S(=O)(=O)N2CCCCC2)cc1NC(=O)COC(=O)Cc1c(F)cccc1Cl	14.6	-2.1%	0.1	-17.8%	2.4	-3.5%
COc1ccc(Cc2nc3ccc(C(=O)N(C)Cc4cc(C)[nH]n4)cc3o2)cc1OC	-1.5	12.4%	-3.7	3.5%	-0.9	0.6%
O=C(Cn1nnc2ccccc21)OCc1ccccc1	-0.8	-0.9%	0.5	-20.4%	-0.4	0.9%
CC(C)(C)c1nc(N2CCN(C(=O)c3ccco3)CC2)c2nnn(Cc3ccccc3)c2n1	0.9	23.3%	3.9	?	1.4	?
O=C(NCC(c1ccco1)N1CCc2ccccc2C1)C(=O)Nc1ccccc1F (stereo not drawn)	-13.5	0.6%	/	-5.9%	-0.4	-1.6%
CC1Cc2ccccc2N1C(=O)CN1C(=O)NC(C)(c2ccc3c(c2)OCCO3)C1=O (stereo not drawn)	-5.0	-0.1%	3.4	-9.5%	6.7	-0.6%
CCn1c(SCC(=O)NC2CC2)nnc1-c1csc(C)c1	45.0	-4.4%	/	-1.6%	-0.1	-1.0%
C/C(=N\NC(=O)c1nnn(-c2nonc2N)c1-c1ccc2c(c1)OCO2)c1ccc(C)cc1	0.0	-11.6%	/	-20.2%	2.0	32.9%
COc1ccc(C(=O)NNC(=O)COc2ccc(Cl)cc2C)cc1S(=O)(=O)N1CCOCC1	58.7	-11.6%	/	9.2%	0.3	-0.7%
CCOC(=O)c1cn(C2CC2)c2c(F)c(F)c(F)cc2c1=O	10.3	-0.5%[15.4 µM]	1.7	/	-0.2	/
CCOCCCN(C(=O)Nc1ccc(Cl)cc1)C1CCN(C(C)=O)CC1	12.1	/	/	/	-0.8	-0.1%
CCOC(=O)N1CCN(S(=O)(=O)c2ccc(C(=O)Nc3sc4c(c3C#N)CCC4)cc2)CC1	4.6	-6.8%	?	14.0%	-0.5	-0.2%
CCN(C1CCCCC1)S(=O)(=O)CCNC(=O)c1ccc(OC)cc1	-3.8	-44.7%[inhibitor]	/	/	-0.8	-1.0%
CCOC(=O)C1C(CC)NC(=S)NC1(C)O (stereo not drawn)	1.6	?	0.3	9.8%	0.4	/
Cc1ccccc1NC(=S)N/N=C/c1ccc(O)cc1O	0.1	7.1%[15.4 µM]	2.8	-3.3%	0.5	/
Cc1ccc(-c2ccc(/C=N\NC(=O)C3C(=O)NCC3c3ccccc3)o2)cc1Cl (stereo not drawn)	-0.2	-24.7%	2.9	?	0.1	-23.2%
O=C(Cn1ncc2c3ccccc3n(Cc3ccccc3)c2c1=O)NCCCN1CCCC1	5.9	-1.5%	/	0.8%	-0.6	3.3%
O=C(c1ccccc1Oc1ccccc1)N1CCN(c2ccc(F)cc2)CC1	3.1	0.8%	1.0	-13.0%	0.0	0.5%
CCOc1cc([N+](=O)[O-])c2nc(N)sc2c1	/	?	-2.2	0.8%	/	1.6%
COc1ccc(-c2csc(N3CCC(C(N)=O)(N4CCCCC4)CC3)n2)cc1	14.0	-32.3%[inhibitor]	2.9	?	-0.4	0.6%
CCOc1ccccc1C(=O)NCCCCCC(=O)O	9.1	-16.6%	-0.9	-9.6%	-0.3	0.0%
Cc1ccc(OC(=O)C2CCN(C(=O)c3ccccc3C)CC2)c(Br)c1	45.6	-33.7%[inhibitor]	/	-10.4%	0.1	-1.9%
C/C(=N\Nc1ccc(F)cc1F)c1ccccc1O	-4.4	10.0%[15.4 µM]	-3.7	-12.9%	0.3	/
COc1ccccc1CC(=O)NNC(=O)c1ccc(C(C)(C)C)cc1	9.5	-20.8%	/	20.0%	-0.2	-2.1%
Cc1sc(NC(=O)COc2ccccc2)c(C#N)c1-c1ccccc1	-19.1	-35.5%[inhibitor]	-1.6	-11.4%	0.0	-3.6%
COc1ccc2c(c1)CCO[C@]21O[C@H](CCO)C[C@H](O)[C@H]1O	-1.7	-15.8%	/	/	0.0	-1.2%
O=c1cc(CN2CCc3ccccc32)nc2sccn12	-8.9	7.8%	-3.5	15.4%	-0.2	1.5%
Cc1cccc(N(C(=O)Nc2ccccc2)C2=NCC(C)S2)c1 (stereo not drawn)	-13.9	0.9%	2.7	3.4%	-0.3	1.4%
CN(C)c1nc(Oc2ccc(=O)[nH]n2)nc(N2CCCCC2)n1	-3.4	8.7%	2.8	6.7%	-0.7	2.7%
COc1cccc(Oc2ccc3nnc(C(F)(F)F)n3n2)c1	9.6	0.0%	1.5	-5.0%	2.2	/
NC(=O)CSc1nnnn1-c1cccc(O)c1	15.6	/	/	/	0.0	-2.3%
Cc1c(C(=O)NCCSCc2cccc(C(F)(F)F)c2)cnn1-c1ccc(F)cc1	-13.9	-5.8%	1.4	-10.4%	-0.5	1.0%
Cc1cccc(N2CCN(c3c4c(nc5nncn35)CCC4)CC2)c1C	-11.5	/	/	/	2.1	-7.2%
C=CCNc1nc(-c2cc3ccccc3o2)cs1	12.6	-42.3%	-2.0	-1.6%	0.3	-5.2%
CCOc1ccccc1Nc1nc(-c2sc(C)nc2C)cs1	0.9	8.4%	-1.2	-25.5%	0.8	/
CCOC(=O)Cc1csc(NC(=O)C(C)Oc2ccc3c(C)cc(=O)oc3c2)n1 (stereo not drawn)	-1.4	0.3%	-1.5	-9.4%	1.9	3.9%
CCOC(=O)CCC(=O)Nc1ccc(S(=O)(=O)Nc2cc(OC)nc(OC)n2)cc1	-17.1	14.3%	3.4	-18.8%	0.2	-1.4%
Cc1ccc(C(C(=O)NC(C)(C)C)N(CC2CCCO2)C(=O)Cn2nnc(-c3ccc(C)o3)n2)cc1 (stereo not drawn)	-13.6	8.3%	15.0	-0.1%	1.2	-1.3%
COC(=O)C(CSCc1ccccc1)NC(=O)CSc1nc(C)cc(=O)[nH]1 (stereo not drawn)	9.7	-3.4%[15.4 µM]	0.5	-7.6%	-0.9	/
CN(C)CCN(C(=O)c1ccc2ccccc2c1)c1nc2c(F)cccc2s1	-1.6	-18.4%	2.6	2.6%	-0.7	2.7%
C(=NN1CCCCCC1)c1ccc2ccccc2n1	-6.2	-38.4%[inhibitor]	/	-5.7%	0.3	/
O=C(CCS(=O)(=O)c1ccc(Br)cc1)NCc1ccc(F)cc1	-6.5	-14.2%	0.9	-3.5%	0.2	1.1%
CC(=O)c1c(C)[nH]c(C(=O)CSc2nc3ccccc3n2C)c1C	-0.3	-37.5%	-1.4	?	1.6	1.2%
Cc1ccc(OCCn2c(C3CC(=O)N(Cc4ccc(F)cc4)C3)nc3ccccc32)c(C)c1 (stereo not drawn)	54.0	/	/	/	4.0	-2.5%
CC1Cc2ccccc2N1C(=O)CCS(=O)(=O)c1ccc2c(c1)NC(=O)CS2 (stereo not drawn)	-0.8	?	/	-7.1%	0.3	1.7%
Cn1c(Cl)nc2c1c(=O)n(Cc1cccc(Br)c1)c(=O)n2C	-3.2	1.4%	2.6	1.5%	1.6	-0.4%
COc1ccc(-n2c(C)nc3c(cnn3-c3ccc(Cl)cc3)c2=O)cc1	0.3	-29.3%	-3.8	?	-0.3	0.1%
COc1ccc(NC(=O)c2c(C)nn(-c3ccccc3)c2Cl)cc1	4.4	9.3%[15.4 µM]	-5.4	-18.3%	0.2	0.9%
Cc1ccccc1CNC(=O)c1nn(-c2ccccc2F)nc1CO	9.6	/	/	/	1.6	?
CCN(C(=O)CN1CCN(c2cccc(Cl)c2)CC1)c1c(N)n(Cc2ccccc2)c(=O)[nH]c1=O	-10.7	17.9%[15.4 µM]	1.4	-13.5%	-0.7	-0.4%
COc1cccc(CNC(=O)CN(C)S(=O)(=O)c2cccc3cccnc23)c1	/	16.8%	-2.9	-19.2%	/	1.7%
CCOc1ccc(N/C(N)=N/c2nc(CSc3nnnn3-c3ccccc3)cc(=O)[nH]2)cc1	-5.2	2.1%	2.1	1.7%	1.1	1.5%
CC(NC(=O)c1cccc(F)c1)C1CC2CCC1C2 (stereo not drawn)	2.5	-2.8%	/	1.3%	1.8	/
COc1cc(C(C(=O)Nc2c(C)cccc2C)N(C)C(=O)c2ccc(-n3cnnn3)cc2)ccc1O (stereo not drawn)	16.2	-19.5%[15.4 µM]	-1.0	-7.4%	2.3	/
COC(=O)c1cc(CSc2ncnc3sccc23)oc1C	/	-1.9%	13.7	-8.1%	/	0.0%

(more compounds)
SMILES	TRPML1 blocker	gsp ag	Menin MLL FP FL	gsp antagonist	TRPML1 ag	ClpP mod
CCOc1ncccc1C(=O)OCC(=O)Nc1cccc(S(=O)(=O)N2CCCCCC2)c1	-2.7	-0.2%	/	?	4.2	?
Nc1c(Cl)ncnc1NCC(O)CO (stereo not drawn)	-2.9	9.9%[15.4 µM]	-1.5	14.5%	1.0	/
Cc1cccc(OC(C)C(=O)Nc2nc(-c3cccnc3)cs2)c1 (stereo not drawn)	-1.2	-7.3%	/	/	0.7	-0.4%
Cc1cc(NC(=O)CN2C(=O)NC(C)(c3ccccc3)C2=O)no1 (stereo not drawn)	3.0	-18.5%	0.8	7.0%	0.3	-1.3%
CCOC(=O)C1CCCN(C(=O)Cc2c(F)cccc2Cl)C1 (stereo not drawn)	5.0	-4.8%	2.5	1.8%	0.2	0.1%
CCN1CCN(S(=O)(=O)c2cc(OC)ccc2OC)CC1	6.8	-62.7%[inhibitor]	0.2	12.8%	0.5	0.5%
CN(C)C(=O)c1ccccc1NC(=O)Cc1cccc2ccccc12	-22.2	-17.7%	-1.4	13.4%	0.0	1.8%
Cc1ccc(/C=C/c2onc(C)c2S(=O)(=O)N2CCC(C(=O)NCc3ccc(N(C)C)cc3)CC2)cc1	28.5	/	/	/	1.1	-2.0%
Cc1ccc(C(C(=O)NCc2ccco2)N(C(=O)Cn2nnc3ccccc32)c2ccccc2)o1 (stereo not drawn)	14.7	3.1%	-1.3	-7.0%	0.5	-1.6%
CC1(C)CC(=O)/C(=C(\O)CCCN2C(=O)c3ccccc3C2=O)C(=NCC(=O)O)C1	10.1	0.5%	3.7	12.6%	0.6	/
COc1ccc(C(C)NC(=O)c2ccc(Cl)cc2)cc1OC (stereo not drawn)	-12.2	-34.7%[inhibitor]	5.4	14.5%	-0.2	-10.6%
